High-throughput results: PubChem BioAssay, several laboratories
RecA splice inh = Mtb RecA intein splicing inhibition | cell-free RecA intein splicing, fluorescence | P9WHJ3 | 290,000 compounds, 0.75% hits | inhibition, %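 (about 9 µM by stock and volumes)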 | AID 2221; in the data active = inhibition above about 30%; inconclusive = no clear call, values can overlap the other calls;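 note: 0% = vehicle wells and 100% = reference inhibitor control wells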
Target sequence (P9WHJ3 whole entry, looked up, canonical isoform): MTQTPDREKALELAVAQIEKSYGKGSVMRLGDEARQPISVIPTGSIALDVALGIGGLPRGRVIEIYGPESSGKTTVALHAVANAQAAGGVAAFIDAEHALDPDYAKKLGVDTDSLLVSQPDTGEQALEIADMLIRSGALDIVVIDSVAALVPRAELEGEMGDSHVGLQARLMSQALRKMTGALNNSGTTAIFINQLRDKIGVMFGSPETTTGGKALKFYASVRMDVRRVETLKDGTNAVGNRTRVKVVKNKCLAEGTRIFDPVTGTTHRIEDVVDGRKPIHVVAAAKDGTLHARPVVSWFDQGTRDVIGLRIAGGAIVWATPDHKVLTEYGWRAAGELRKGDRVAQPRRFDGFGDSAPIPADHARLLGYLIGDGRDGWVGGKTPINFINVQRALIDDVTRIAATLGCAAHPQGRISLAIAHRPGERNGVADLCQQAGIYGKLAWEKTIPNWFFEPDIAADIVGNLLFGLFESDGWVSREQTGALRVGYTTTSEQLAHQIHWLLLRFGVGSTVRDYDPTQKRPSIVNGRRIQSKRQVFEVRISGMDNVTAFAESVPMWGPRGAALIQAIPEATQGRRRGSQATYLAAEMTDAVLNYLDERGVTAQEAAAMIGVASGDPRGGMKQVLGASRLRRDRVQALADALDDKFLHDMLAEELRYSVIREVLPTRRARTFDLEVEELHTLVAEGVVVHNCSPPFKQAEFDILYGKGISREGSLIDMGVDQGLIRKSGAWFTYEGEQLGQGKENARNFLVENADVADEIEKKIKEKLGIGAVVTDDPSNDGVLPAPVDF
Mtb betalactam = beta-lactam sensitization of Mtb H37Rv. inhibition, % at 25 µM. 330,000 compounds, 0.27% hits. M. tuberculosis H37Rv growth with meropenem, percent inhibition; hits of this screen are not shown here. AID 434955;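 active = about 74% or more and at least 40 points above the plate without the antibiotic, then above 30% in a dose series; inconclusive = first-round hits that could not be retested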;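 note: growth measured after seven days incubation then overnight dye step; 0% = bacteria only wells and 100% = bacteria with antibiotic; twin plates without the antibiotic show which effects depend on it; some results filed as inactive read as strong as hits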
Arbovirus inh = antivirals against arbovirus infection. arbovirus infection cell-based antiviral screen. inhibition, % at 10 µM. 200,000 compounds, 0.37% hits;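 active = inhibition from about 30%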;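 note: bluetongue infection of BSR cells; cell survival read as ATP light after 72 h; 0% = infected wells without compound and 100% = uninfected wells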
Mtb H37Rv = M. tuberculosis H37Rv growth inhibitors, H37Rv strain (AID 1626); 220,000 compounds, 0.95% hits; one-dose inhibition, % at 10 µM; IC50 in µM for titrated hits; M. tuberculosis H37Rv growth inhibition; higher % means a stronger effect;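 active = confirmed in a dose series; inconclusive = inhibition above 80% but not taken into the dose series; inactive = below 80% or under 30% at every dose of the series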;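 note: bacteria incubated seven days before Alamar blue readout; 0% = bacteria only wells and 100% = bacteria with antibiotic wells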
YopH PTP inh = YopH (Yersinia) phosphatase inhibition; fluorescence Ex485/Em525; inhibition, %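 (about 10 µM by stock and volumes)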; 140,000 compounds, 0.16% hits; AID 898;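 active = inhibition of 50% or more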;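 note: controls were vehicle for no effect and minimum signal wells for full effect; inactives centre near -20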
Numbers without * were called inactive; ? = inconclusive; nt = no result given.

Every second line gives: RecA splice inh | Mtb betalactam | Arbovirus inh | Mtb H37Rv | YopH PTP inh
1. Nn1cnc2c([nH]c3ccccc32)c1=O
 : -6.2 | 1 | 10 | -10% | -30
2. O=[N+]([O-])c1ccc(Nc2nccc(Cl)n2)cc1
 : 1.0 | 1 | nt | nt | nt
3. CCOc1ccc(OC(=O)NC(c2ccccc2)C(Cl)(Cl)Cl)cc1 (stereo unspecified)
 : 5.5 | -10 | -9 | -7% | -36
4. CCN(CC)C(=O)c1ccc(NC(=O)c2ccc(-n3cncn3)c([N+](=O)[O-])c2)cc1
 : -3.3 | 1 | nt | nt | nt
5. CCCN1C(=S)SC(C)(C)C1/[N+]([O-])=C/c1cccnc1 (stereo unspecified)
 : 0.9 | -6 | -9 | ? | -3
6. CCOc1ccc(C2C(C(=O)c3ccc(C)o3)=C(O)C(=O)N2c2nc(C)c(C(=O)OC)s2)cc1 (stereo unspecified)
 : -1.3 | 13 | nt | nt | nt
7. Cc1ccc(CN2CCCC(CO)(Cc3ccccc3C)C2)s1 (stereo unspecified)
 : -0.3 | 4 | 1 | 2% | nt
8. CCn1c(CNC(=O)c2ccco2)nnc1SCC(=O)Nc1cc(C)c(C)cc1Br
 : 1.6 | 5 | 5 | -2% | -1
9. COc1ccccc1CNC(=O)C1CCN(S(=O)(=O)c2c(C)noc2C)CC1
 : -1.7 | -6 | -4 | -5% | -17
10. CCn1c(CN2CCN(c3ccc(OC)cc3)CC2)nc2cc(S(=O)(=O)N(C)C)ccc21
 : -2.0 | -2 | nt | nt | nt
11. COc1cc(C2CC(C(F)(F)F)n3ncc(C(=O)O)c3N2)cc(OC)c1OC (stereo unspecified)
 : -0.8 | -5 | -4 | -2% | -40
12. NS(=O)(=O)c1ccc(NC(=O)CSc2nnc(-c3ccc(O)cc3)o2)cc1
 : 0.7 | 0 | nt | nt | nt
13. Cn1c2ccccc2c2cnn(CC(=O)N3CCC4(CC3)OCCO4)c(=O)c21
 : 1.4 | -1 | 1 | nt | -15
14. O=C(Nc1cccc2cccnc12)c1ccc(Cl)cc1
 : 4.5 | 29 | nt | nt | nt
15. C/C(=N\OC(=O)Nc1ccccc1)c1ccc(C)cc1
 : 3.0 | 3 | nt | nt | nt
16. Cc1cc(Br)c(OCc2ccc(C(=O)N/N=C3\CC4CC=CC34)cc2)c(Br)c1 (stereo unspecified)
 : 18 | 3 | -18 | 6% | -25
17. CC(OC(=O)c1ccccc1N1C(=O)C2C3CCC(C3)C2C1=O)C(=O)c1ccccc1 (stereo unspecified)
 : -4.2 | -2 | -1 | 5% | -6
18. O=C(COC(=O)c1ccccc1SCC(=O)N1CCCC1)Nc1ccccc1OC(F)F
 : 0.0 | -4 | nt | nt | nt
19. COc1cc(/C=C/C(=O)NNc2c(F)c(F)cc(F)c2F)ccc1OC(F)F
 : 0.2 | 5 | 7 | 9% | 5
20. CCCCn1c(N)c(N(CCC(C)C)C(=O)c2cc(S(=O)(=O)N3CCOCC3)ccc2F)c(=O)[nH]c1=O
 : -0.9 | -5 | nt | nt | nt
21. COc1ccccc1CNC(=O)N1CCN(S(=O)(=O)c2ccc(C)cc2)CC1
 : -1.6 | 2 | nt | nt | nt
22. Cc1c(C(=O)N2CCCCC2)sc(NC(=O)c2ccco2)c1C#N
 : -0.8 | -11 | 2 | -8% | -12
23. CCOCCCNC(=O)C(c1ccc(Cl)cc1)N(Cc1ccc2c(c1)OCO2)C(=O)CNC(C)=O (stereo unspecified)
 : nt | -7 | 5 | 4% | nt
24. CCOC(=O)c1cc(C)sc1NC(=O)CSc1nccn1C
 : 1.4 | -4 | nt | nt | nt
25. Cc1ccc(NC(=O)CSc2ncccn2)cc1S(=O)(=O)N1CCCCC1
 : -1.9 | 0 | nt | nt | nt
26. COc1cc2c(cc1OC)C(c1ccccc1C)CC(=O)N2 (stereo unspecified)
 : -1.3 | -5 | nt | nt | nt
27. CCC(=O)N1CCc2cc(S(=O)(=O)N3CCc4ccccc43)ccc21
 : 1.6 | -4 | 5 | nt | 0
28. O=C(Nc1cccnc1Cl)c1ccc(Cl)cc1
 : -2.1 | -7 | nt | nt | nt
29. Cc1nn(C)c(C)c1NC(=O)CSc1nc(-c2ccccc2Cl)nc2c1cnn2-c1ccccc1
 : 5.8 | 1 | -12 | 4% | -4
30. O=C1[C@@H]2Cc3c([nH]c4ccccc34)CN2C(=O)CN1CCCCCO
 : -1.1 | 1 | nt | nt | nt
31. CCC(=NCc1ccco1)c1c(O)n(-c2ccc(Cl)cc2)c(=O)[nH]c1=O
 : -0.4 | 0 | nt | -3% | nt
32. Cc1ccc(C(=O)n2nnc3ccccc32)cc1
 : 5.3 | 0 | nt | -7% | -29
33. O=C(NNS(=O)(=O)c1ccc(C(F)(F)F)cc1)c1cnn(-c2ccccc2)c1C(F)(F)F
 : 0.5 | 0 | nt | -15% | nt
34. CC(=O)N1CCN(c2ccc(S(=O)(=O)N3CCCCC3)cn2)CC1
 : nt | -9 | 6 | 0% | -20
35. CCN(CC)CCCOC(=O)C(OC)(c1ccccc1)c1ccccc1
 : -0.3 | -1 | -10 | -4% | -7
36. O=C(Cc1c(F)c(F)c(F)c(F)c1F)OC12CC3CC(C1)C(=O)C(C3)C2
 : 6.8 | -2 | 0 | -2% | -31
37. CC(C(=O)NCc1ccccn1)N1C(=O)c2ccccc2C1=O (stereo unspecified)
 : -3.2 | -3 | 6 | -4% | -31
38. CCOC(=O)/C(C#N)=C/C1=C(N2CCCC2)CC(C)(C)OC1
 : 4.4 | -1 | 3 | -3% | -5
39. CCN(c1ccccc1)S(=O)(=O)c1ccc(C(=O)Nc2nnc(COC)o2)cc1
 : 2.8 | 37 | 0 | -7% | -15
40. COc1ccc(-c2nnc(SCC(=O)Nc3sc4c(c3C#N)CCCC4)n2-c2ccccc2)cc1
 : -2.8 | 17 | -36 | 0% | -5
41. CC(=O)Nc1ccc(N(C(=O)Cn2nnc3ccccc32)C(C(=O)NC2CCCC2)c2ccc(O)c(O)c2)cc1 (stereo unspecified)
 : -4.2 | 0 | 5 | 1% | nt
42. Cc1ccccc1-n1c(-c2ccc(=O)[nH]n2)n[nH]c1=S
 : 1.3 | -5 | -2 | -2% | nt
43. Cc1ccc(OCC(=O)NCCCNC(=O)c2ccco2)cc1C
 : 1.0 | -7 | nt | nt | nt
44. COc1ccc(C(C(=O)NCc2ccc(F)cc2)N(Cc2cccnc2)C(=O)c2snc(C(N)=O)c2N)cc1 (stereo unspecified)
 : 1.9 | 0 | nt | nt | nt
45. N#CCCN(CCC#N)S(=O)(=O)c1ccc(C(=O)Nc2nc(-c3ccccc3)c(C(=O)c3ccccc3)s2)cc1
 : 3.0 | 69 | nt | 8% | nt
46. CC(Oc1ccc(Br)cc1)C(=O)Nc1ccncc1 (stereo unspecified)
 : -1.2 | 7 | 7 | 9% | nt
47. Clc1cccc(Cl)c1CNCCCSc1ncccn1
 : -2.3 | -5 | nt | nt | nt
48. O=C1C2CCCN2C(c2cccc(Cl)c2)N1c1ccccn1 (stereo unspecified)
 : -0.1 | -10 | -4 | -9% | 11
49. CC(C)Oc1ccccc1OCCCOc1cccc2cccnc12
 : nt | 10 | -2 | 10% | nt
50. COc1ccc2nc(/C=N/NC(=O)[C@H](C)NC(=O)OC(C)(C)C)ccc2c1
 : 2.3 | -3 | 8 | -6% | -13

Carrying on:
Every second line gives: RecA splice inh | Mtb betalactam | Arbovirus inh | Mtb H37Rv | YopH PTP inh
51. COCCNC(=O)CCn1nc(-c2ccc(C)cc2)c2ccccc2c1=O
 : 4.7 | -5 | nt | nt | nt
52. O=C(Cc1ccc(Br)cc1)Nc1nc2ccccc2[nH]1
 : 0.6 | 25 | nt | -4% | nt
53. O/N=C/c1cc(Br)ccc1OCc1ccccc1F
 : 10 | 1 | nt | 12% | -16
54. Cc1ccc(N(CC(=O)N/N=C/c2cc(C)n(-c3ccccc3)c2C)S(C)(=O)=O)c(C)c1
 : 0.3 | -2 | 0 | 12% | -20
55. CCN(CCCNC(=O)COc1cc(=O)n(C)c2ccccc12)c1ccccc1
 : 1.0 | -15 | 0 | -8% | -31
56. N#C/C(=N/Nc1ccc(OC(F)(F)F)cc1)C(N)=S
 : 23 | 98 | nt | ? | nt
57. COc1cccc(/C=N/NC(=O)CNC(=O)C2COc3ccccc3O2)c1O (stereo unspecified)
 : -2.1 | nt | -24 | -12% | -31
58. CCN1CCN(c2ncc(C(=O)Nc3c(F)cc(F)cc3Br)c3ccccc23)CC1
 : 4.5 | 96 | -13 | 5% | -20
59. CCN(C(=O)CSc1nnnn1-c1ccccc1)C1CCS(=O)(=O)C1 (stereo unspecified)
 : -0.6 | -3 | 3 | 6% | nt
60. COc1ccc(CC(=O)O/N=C(\N)c2ccccn2)cc1
 : 0.3 | -2 | nt | -3% | nt
61. COc1cccc(N2CCc3c(C)nc4ccc(Cl)cc4c32)c1
 : -1.8 | 8 | nt | nt | nt
62. CC(=O)Nc1cccc(NS(=O)(=O)c2ccccc2[N+](=O)[O-])c1
 : 1.1 | -3 | 3 | 26% | nt
63. N/C(=N\OC(=O)CC1CCCCC1)c1cccnc1
 : -0.9 | -6 | -2 | -3% | -56
64. CCOc1ccc(N2CC(C(=O)NCCc3c[nH]c4ccc(C)cc34)CC2=O)cc1 (stereo unspecified)
 : -3.1 | 2 | nt | nt | nt
65. C/C(CC(=O)Nc1ccc(F)cc1)=N\NC(=O)Cc1csc(N)n1
 : 3.2 | 5 | -1 | -5% | -18
66. COc1ccc(C(=O)NNC(=O)CN2CCC(n3nnc4cc(F)ccc43)CC2)cc1
 : 1.9 | -6 | 12 | 1% | -22
67. CCCn1c(C(O)c2ccc(OC)cc2)nc2ccccc21 (stereo unspecified)
 : nt | -5 | 7 | 2% | -21
68. CCC1CN(C(=O)NCc2ccccc2)c2cc(Cl)ccc2O1 (stereo unspecified)
 : -1.5 | 17 | nt | nt | nt
69. Cc1ccc(NC2OC(CO)C(O)C2O)cc1[N+](=O)[O-] (stereo unspecified)
 : 2.7 | 97 | 1 | ? | 12
70. CCOC(=O)c1ccccc1OCc1cc(/C=N/n2cnnc2)ccc1OC
 : 1.1 | -10 | -10 | -1% | -20
71. Cc1c(C=O)c(=O)n(-c2ccccc2)n1-c1ccccc1
 : -1.0 | 2 | 6 | -10% | -5
72. CCC1CCCCN1C(=O)CN1C(=O)c2ccccc2S1(=O)=O (stereo unspecified)
 : -0.8 | -14 | nt | nt | nt
73. O=C(NCc1ccccn1)Nc1ccccc1
 : 1.2 | 2 | 3 | -4% | nt
74. NCCCn1c(C(=O)c2cc(Cl)c(N)c(Cl)c2)c2ccc(C(F)(F)F)cc2[n+]1[O-]
 : 2.6 | 5 | nt | nt | nt
75. O=C(Nc1cccc(F)c1)c1cc(S(=O)(=O)N2CCOCC2)cs1
 : 2.1 | -11 | 3 | 1% | nt
76. Cc1sc2nc(CN(Cc3ccccc3)C(=O)NC3CCCCC3)[nH]c(=O)c2c1C
 : -1.3 | 11 | nt | 18% | 3
77. CN(Cc1ccccc1)c1nc(N)c([N+](=O)[O-])c(Nc2cccc(F)c2)n1
 : 7.7 | -7 | -6 | 5% | -17
78. Cc1cc(OCCN2CCOCC2)ccc1C(C)C
 : 1.6 | -1 | nt | nt | nt
79. O=S(=O)(c1cccc(Br)c1)N1CCN(C(=S)NCC2CCCO2)CC1 (stereo unspecified)
 : 0.4 | 2 | nt | nt | nt
80. Cc1cccc(NC(=O)COC(=O)CNC(=O)C2CCCCC2)c1
 : nt | -13 | 2 | 5% | 2
81. CC(=O)Nc1ccc(NCc2cccs2)cc1
 : -0.6 | 6 | nt | nt | nt
82. CCN(CC)c1ccc(N2C(=O)C3CCCCC3C2=O)cc1[N+](=O)[O-] (stereo unspecified)
 : -2.5 | 10 | 6 | -2% | -22
83. COc1ccccc1N1CCN(C2CCCN(C(=O)c3csc(C)n3)C2)CC1 (stereo unspecified)
 : 1.1 | 3 | nt | nt | nt
84. O=C(NCCCn1ccnc1)c1ccncc1
 : -2.1 | -9 | 5 | -12% | 33
85. CCc1nnc(NS(=O)(=O)c2ccc(NC(=O)c3cc(Cl)ccc3[N+](=O)[O-])cc2)s1
 : 0.3 | -2 | nt | nt | nt
86. CC1CCC(NC(=O)c2cccc(S(=O)(=O)N3CCN(c4ccccc4)CC3)c2)CC1 (stereo unspecified)
 : -2.4 | 2 | nt | nt | nt
87. Cc1cc(C)nc(NC(=O)Nc2ccccc2C(F)(F)F)n1
 : 5.2 | ? | -14 | 3% | -14
88. CC(=O)Nc1ccc(S(=O)(=O)c2c(N)n(CCN3CCOCC3)c3nc4ccccc4nc23)cc1
 : -5.5 | -17 | 9 | 4% | -12

These rows are one share of the data; rates above refer to the full screens.
